# CtBP-E1A inh: qHTS Assay for Inhibitors of the CtBP/E1A Interaction; CtBP / adenovirus E1A interaction (AlphaScreen); AlphaScreen GST-E1A/His-CtBP binding, 1536-well; active compounds read low; control for the full effect not named in the record; activity change, % (concentration not given with the values); 0.49% of 340,000 active; in the data active means activity change below about -65%; inconclusive means about -30% to -65%; inactive means above about -30%; further: on the % scale 0 is the no-effect control and ±100 the full control effect
#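 In 5 uL wells, 23 nL compound meets equimolar GST-E1A and His-CtBP (5X stock 125 nM each) for 2 h, 37 °C. Beads (5X, 50 ug/mL) then 1 h, 37 °C, dark.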
# D2 agonist: Beta-Arrestin HTS for Positive Allosteric Modulators of the Human D2 Dopamine Receptor: Agonists | 0.084% of 360,000 active | activation, % (test concentration not listed) | D(2) dopamine receptor (Homo sapiens), P14416 | DiscoveRx PathHunter D2 beta-arrestin, luminescence, 90 min; 100% = 57 uM dopamine signal; in the data active = activation above about 40%; inconclusive = about 15% to 40%; inactive = below about 15%; further: compound concentration not given in the record; the text of the record calls up to 30% inactive
# Target sequence (P14416 whole entry, looked up): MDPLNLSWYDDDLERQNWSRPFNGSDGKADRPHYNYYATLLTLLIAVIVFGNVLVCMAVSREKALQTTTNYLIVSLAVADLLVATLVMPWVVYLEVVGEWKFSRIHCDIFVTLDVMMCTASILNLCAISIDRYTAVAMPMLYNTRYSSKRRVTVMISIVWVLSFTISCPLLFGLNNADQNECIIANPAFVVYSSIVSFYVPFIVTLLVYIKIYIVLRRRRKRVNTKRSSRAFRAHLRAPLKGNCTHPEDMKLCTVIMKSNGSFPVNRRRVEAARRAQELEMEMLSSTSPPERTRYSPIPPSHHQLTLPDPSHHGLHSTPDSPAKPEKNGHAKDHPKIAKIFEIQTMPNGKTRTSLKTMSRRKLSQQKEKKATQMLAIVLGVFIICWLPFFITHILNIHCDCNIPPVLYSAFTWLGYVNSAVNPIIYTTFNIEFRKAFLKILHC
#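 Agonist mode: compounds alone added to overnight-plated D2 PathHunter cells for 90 min at 37 C, with 57 uM final dopamine (EC100) defining full response. Beta-arrestin recruitment detected by chemiluminescent reagent, read after 1 h at ambient temperature.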
# TRPML1 ag: qHTS for Agonists of the Human Mucolipin Transient Receptor Potential 1 (TRPML1) | 0.12% of 410,000 active | Mucolipin-1 (Homo sapiens), Q9GZU1 | TRPML1-expressing cells, Ca2+ dye fluorescence, FDSS; host cell line not named in the record; reference of the full effect not given here | activation, % (test concentration not listed); in the data active = activation above about 50%; inconclusive = about 30% to 50%; inactive = below about 30%; further: 0% is about no effect; the text of the record puts the active cut at 80%
# Target sequence (Q9GZU1 whole entry, looked up): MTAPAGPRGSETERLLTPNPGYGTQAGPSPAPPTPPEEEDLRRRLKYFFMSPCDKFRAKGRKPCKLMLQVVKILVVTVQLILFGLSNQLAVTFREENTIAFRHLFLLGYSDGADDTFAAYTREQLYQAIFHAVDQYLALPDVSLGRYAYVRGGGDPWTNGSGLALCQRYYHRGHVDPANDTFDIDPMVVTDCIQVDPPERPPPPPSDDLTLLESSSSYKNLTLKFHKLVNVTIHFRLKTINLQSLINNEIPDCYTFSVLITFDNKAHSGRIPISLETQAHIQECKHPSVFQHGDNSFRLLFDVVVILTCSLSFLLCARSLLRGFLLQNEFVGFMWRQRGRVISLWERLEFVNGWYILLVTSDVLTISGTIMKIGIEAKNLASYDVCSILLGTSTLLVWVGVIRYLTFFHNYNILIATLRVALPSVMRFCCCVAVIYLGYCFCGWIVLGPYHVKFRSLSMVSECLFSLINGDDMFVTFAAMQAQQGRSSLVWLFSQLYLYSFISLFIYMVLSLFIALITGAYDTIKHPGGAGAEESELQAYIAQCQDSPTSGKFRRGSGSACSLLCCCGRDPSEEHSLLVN
#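 TRPML1-DL cells, Tet-induced overnight (~16 h, 37 degrees C), loaded 45-90 min at room temperature with Ca8 no-wash calcium dye plus quencher. FDSS fluorescence: 10 s baseline, compound pin-transfer, 110 s agonist read, then EC80 54-4 (4uM final) and 110 s antagonist read.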
# D2 PAM: Beta-Arrestin HTS for Positive Allosteric Modulators of the Human D2 Dopamine Receptor: Potentiators; 0.23% of 360,000 active; potentiation, % (concentration not given with the values); DiscoveRx D2 beta-arrestin cells, luminescence, 90 min; 100% = 57 uM dopamine signal; D(2) dopamine receptor (Homo sapiens), P14416; active = potentiation of 50% or more; inconclusive = 30% to 50%; inactive = 30% or less;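 further: compound concentration not given in the record; tested on top of an EC20 dose of dopamine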
#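 D2 cells co-treated with compound plus 50 nM dopamine (EC20) for 90 min at 37 deg C to detect potentiation. Beta-arrestin recruitment was read as enzyme-fragment luminescence after 1 h at ambient temperature. Full response was set by 57 uM dopamine.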
# Six1-Eya2 blk: qHTS Assay for Inhibitors of the Six1/Eya2 Interaction | AlphaScreen GST-Six1/His-Eya2 binding, biochemical; active compounds read low; control for the full effect not named in the record | activity change, % (test concentration not listed) | 0.56% of 360,000 active; in the data active = activity change below about -65%; inconclusive = about -30% to -65%; inactive = above about -30%; further: on the % scale 0 is the no-effect control and ±100 the full control effect
#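 Six1/Eya2 binding was read as AlphaScreen signal after compounds were pinned into GST-Six1 plus His-tagged Eya2 (5X stock 250/500 nM) in pH 8.0 Tris/NaCl/TCEP buffer, beads added, then incubated 1 h, 37 C, dark.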
# PINK1 modulator: A Quantitative High throughput Screen to Identify Chemical Modulators of PINK1 Expression; PINK1 immunofluorescence, high-content cytometry, 24 h; Potency, µM (top dose mostly 76.6 µM), for the others: at the highest dose activation (PINK1 increase), actives largely listed as activators; 0.2% of 410,000 active; AID 624263, 2012; active = well fitted activation curve with a large enough effect; inconclusive = small, poorly fitted or top-dose-only effect; inactive = flat fitted curve, though single readings scatter; cell line not stated here;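 further: potency means the concentration at half of the fitted maximal effect; % of control where 0% means no effect; nearly all actives have a fitted effect of over 65% in size; a mitochondrial uncoupler was the plate control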
#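 PINK1 protein, normally rapidly degraded, was detected by immunofluorescence after 24 hour compound treatment of a stable cell line. Titration data (5 concentrations) came from laser-scanning cytometry, with CCCP-treated wells as controls.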
# An asterisk follows results filed as active; ? = inconclusive; . = not tested or not shown; & = joins results of further samples; [ ] = remark or other dose.
SMILES,CtBP-E1A inh,D2 agonist,TRPML1 ag,D2 PAM,Six1-Eya2 blk,PINK1 modulator
CCCCn1c(N)c(-c2nc3ccccc3s2)c2c([N+](=O)[O-])nn(CC)c(=O)c21,-11,-1.9,2.5,0,-11,16%[38.3 µM]
CC(C)=CCN1CCN(Cc2ccc3nsnc3c2)CC1CCO (stereo not given),0,-5.2,-0.4,-38,1,-0.1%
CCCCN1C2CCCC1CC(NC(=O)c1ccc(OC)c(OC)c1)C2 (stereo not given),6,-0.2,0.1,-10,2,0.8%
O=C(N[C@H]1C/C=C\C[C@@H](CC(=O)N(CCO)Cc2ccccc2)C(=O)N2CCC[C@@H]2COC1=O)OCC1c2ccccc2-c2ccccc21,7,-6.5,1.5,-8,4,4.9%
CC1Cc2[nH]c(=S)[nH]c(=O)c2C(c2ccc(C(C)C)cc2)O1 (stereo not given),-20,.,-0.5,.,12,-0.1%
CCN(C(=O)C(C)Sc1ccc(S(=O)(=O)N2CCN(C)CC2)cn1)c1ccccc1 (stereo not given),.,-5.1,-0.3,-9,0,-0.5%
Cc1cccc(C(=O)N2CCCC(Nc3ccc(C)c(C)c3)C2)n1 (stereo not given),6,1.9,0.6,-2,6,-1.0%
C=CCn1c(-c2cc(-c3ccccc3)sc2N)n[nH]c1=S,-10,11,0.0,-2,-13,-0.2%
COc1cccc(CN2CC(C(=O)NCCc3cn4cccnc4n3)CCC2=O)c1 (stereo not given),3,-4.8,-0.5,-7,-2,-0.3%
O=C(O)CSc1nc2c(c(C(F)(F)F)n1)CCCC2,-5&-14,-7.8&3.5,-0.5,-1&5,0&2,-0.5%&3.0%
O=S(=O)(NCCc1ccccc1)c1ccc(F)cc1Br,14,-1.9,-0.6,-1,11,4.5%
CCn1c(CC(=O)Nc2ccc(C)cc2)nnc1SCC(=O)N1CCN(c2ccccc2)CC1,-9,-1.3,-0.9,-7,-21,0.4%
O=C(COc1ccc(S(=O)(=O)N2CCOCC2)cc1)Nc1ccccc1C(F)(F)F,-1,1.7,0.0,-3,1,-1.7%[38.3 µM]
Cc1ccc(Cl)c(NC(=O)CN(C)CC(=O)Nc2ccc(F)c(F)c2F)c1Cl,-16,-2.6,1.5,-4,1,-0.8%
O=[N+]([O-])c1ccc(CSc2nnc(SCc3ccc(Cl)cc3)s2)cc1,.,-4.0,0.8,-11,-15,11%
CCOC(=O)C(CC(=O)Nc1nc(C(C)=O)c(C)s1)C(C)c1ccccc1 (stereo not given),-1,-2.6,-0.4,-5,8,8.5%
O=C(NCCNC(=O)c1ccccn1)c1cccc(F)c1,-3,-5.7,-0.6,-4,53,-0.3%
CC(=O)Nc1ccc2c(c1)[nH]c(=O)c1ccccc12,?,-2.5,0.2,-15,?,2.6%
O=C(NC1CCc2ccccc21)c1cc(COc2ccc(F)cc2F)on1 (stereo not given),4,-2.9,2.2,-2,5,-1.0%
CCOC(=O)C1(CCOc2ccccc2)CCN(CC2CC2)CC1,0,1.2,-0.7,-23,4,-0.9%
CCOC(=O)C1(Cc2cccc(OC)c2)CCCN(C(=O)CNC(C)=O)C1 (stereo not given),4,3.0,-0.1,-4,0,1.6%
COc1cccc(NC(=O)C(c2ccccc2)N2CCCC2)c1 (stereo not given),-23,-7.9,0.8,-3,-6,-1.2%
Cc1cc(C(=O)COC(=O)CN(C)S(=O)(=O)c2ccc(Cl)cc2)c(C)n1CC1CCCO1 (stereo not given),-1,-3.4,0.3,-3,-14,-0.3%
O=C1C=C(c2ccccc2)C(c2ccccc2)C1 (stereo not given),6,-1.4,2.3,1,3,-0.7%
O=C(O)Cc1ccc2oc(-c3ccccn3)nc2c1,-4,-7.2,1.5,-8,-3,-2.8%

# 2 compounds picked at random from the list so far, as already listed:
SMILES,CtBP-E1A inh,D2 agonist,TRPML1 ag,D2 PAM,Six1-Eya2 blk,PINK1 modulator
O=C(N[C@H]1C/C=C\C[C@@H](CC(=O)N(CCO)Cc2ccccc2)C(=O)N2CCC[C@@H]2COC1=O)OCC1c2ccccc2-c2ccccc21,7,-6.5,1.5,-8,4,4.9%
COc1cccc(NC(=O)C(c2ccccc2)N2CCCC2)c1 (stereo not given),-23,-7.9,0.8,-3,-6,-1.2%

# Given as tab-separated lines: part of the list above.
canonical_smiles	CtBP-E1A inh	D2 agonist	TRPML1 ag	D2 PAM	Six1-Eya2 blk	PINK1 modulator
O=C1C=C(c2ccccc2)C(c2ccccc2)C1 (stereo not given)	6	-1.4	2.3	1	3	-0.7%
CC(=O)Nc1ccc2c(c1)[nH]c(=O)c1ccccc12	?	-2.5	0.2	-15	?	2.6%
CCOC(=O)C(CC(=O)Nc1nc(C(C)=O)c(C)s1)C(C)c1ccccc1 (stereo not given)	-1	-2.6	-0.4	-5	8	8.5%
O=C(NC1CCc2ccccc21)c1cc(COc2ccc(F)cc2F)on1 (stereo not given)	4	-2.9	2.2	-2	5	-1.0%
COc1cccc(CN2CC(C(=O)NCCc3cn4cccnc4n3)CCC2=O)c1 (stereo not given)	3	-4.8	-0.5	-7	-2	-0.3%
CC1Cc2[nH]c(=S)[nH]c(=O)c2C(c2ccc(C(C)C)cc2)O1 (stereo not given)	-20	.	-0.5	.	12	-0.1%

# (list continues)
SMILES,CtBP-E1A inh,D2 agonist,TRPML1 ag,D2 PAM,Six1-Eya2 blk,PINK1 modulator
Cc1ccc(S(=O)(=O)N2CCN(C(=O)COC(=O)c3ccc(Br)o3)CC2)c(C)c1,4,0.8,-0.4,2,0,1.9%
CC(C)CC(=O)N1CCN(Cc2cccc(Cl)c2)CC1,.,1.9,.,-2,7,-0.5%
CCCN(Cc1cc2cc(C)ccc2[nH]c1=O)C(=O)c1cccc([N+](=O)[O-])c1,.,-5.5,-0.2,-10,1,-0.5%
O=C(C1CCN(C2CC(=O)N(c3ccc(F)cc3)C2=O)CC1)N1CCOCC1 (stereo not given),21,-0.4,0.9,-26,?,-2.5%
COc1cccc(-c2nnc3sc(C4CCCCC4)nn23)c1,-11,-1.8,3.4,-8,-1,-5.2%
O=C(CSc1ccc2nnc(CCNC(=O)c3ccccc3)n2n1)NCc1ccc(F)cc1,0,-0.7,0.0,-16,2,0.6%
Cc1ccc(C(=O)CSc2nc(N)cc(=O)[nH]2)cc1,5,-1.1,-0.3,-15,1,0.9%[38.3 µM]
CCC1CCCCN1C(=S)Nc1ccc(SC(F)F)cc1 (stereo not given),0,-2.4,-0.1,-5,0,3.6%
O=C(CSc1nnc(NC(=O)c2ccccc2[N+](=O)[O-])s1)NCC1CCCO1 (stereo not given),0,-6.5,-0.2,-30,1,1.4%
CCC(C)(C)NC(=O)C(c1ccco1)N(C(=O)Cn1nnc2ccccc21)c1ccc2c(c1)OCO2 (stereo not given),-2,-4.7,5.0,-1,-4,4.0%
CC1CCN(CCCNC(=O)c2cc3c(s2)-c2ccccc2OC3)CC1,4,0.5,-0.1,-31,11,-1.1%
CC(=O)c1c(C)[nH]c(C(=O)OCc2csc(CC(=O)Nc3ccccc3C)n2)c1C,-13,7.1,1.5,2,-11,1.0%
Clc1cccc(CNc2ccn3nc(-c4ccco4)cc3n2)c1,-10,-0.2,-0.7,-1,-21,0.7%
CCN1CCN(c2ccc([N+](=O)[O-])c(Sc3nc4ccccc4[nH]3)c2)CC1,-16,-5.9,-0.3,-21,-9,4.6%
COc1cccc(NC(=O)C2CCN(S(=O)(=O)c3ccc4c(c3)OCCO4)CC2)c1,22,-0.4,3.4,3,8,-3.4%
O=C(c1cccc(Br)c1)N1CCN(C(=O)N2CCCCC2)CC1,18,0.2,-0.2,-21,-2,-5.3%[38.3 µM]
CC(=O)c1cc(C#N)c(NCCCN(C)C)nc1C,-4,1.5,1.4,-8,-5,-2.8%
COc1ccc(C)cc1NC(=O)c1ccccc1NS(=O)(=O)c1cccc2cccnc12,-6,-2.7,-0.6,-5,13,0.5%
Cc1ccc(C(=O)N2CCC3(CC2)NCCc2[nH]cnc23)cc1C,1,-2.6,0.6,-10,14,2.3%
O=C(CSc1nnnn1-c1ccc(Cl)c(C(=O)O)c1)NC(c1ccccc1)c1ccccc1,4,0.8,0.0,-2,0,0.3%
CCOc1cc2c(cc1OCC)C(c1ccc(O)c(OC)c1)NCC2 (stereo not given),-21,-4.3,0.3,-3,13,2.0%
CCC(=O)Nc1ccc(OCc2nc3ccccc3s2)cc1,0,-0.2,-0.8,-5,-2,1.4%
CCCCS(=O)c1c(O)c2ccccc2[nH]c1=O (stereo not given),0,-5.9,0.1,-4,-3,-0.9%
CCc1nc2oc3cc(OC)ccc3c(=O)c2c(=O)n1-c1ccccc1,-14,-0.2,-0.4,-17,-1,-0.6%
CC(=O)N/C(=N\OCc1ccc(Br)cc1)c1nonc1NC(C)=O,-6,-1.9,-0.1,-2,9,18%
SMILES,CtBP-E1A inh,D2 agonist,TRPML1 ag,D2 PAM,Six1-Eya2 blk,PINK1 modulator
O=[N+]([O-])c1ccccc1/C=N/n1c(C(F)(F)F)n[nH]c1=S,-6,-1.4,0.6,3,-3,0.8%
CCCCCn1c(N2CCN(Cc3ccccc3)CC2)nc2c1c(=O)[nH]c(=O)n2C,-2,-4.0,1.1,-18,-10,-3.4%
Cc1cc(=O)[nH]c(SCc2cccc3ccccc23)n1,10,3.5,0.1,6,-2,1.7%
O=C(COc1ccc2c(-c3ccccc3)cc(=O)oc2c1)NCc1cccs1,0,-0.5,1.7,-7,2,12%
COc1ccc2[nH]c(=O)c(CN(c3ccccc3OC)S(=O)(=O)c3ccccc3)cc2c1,-3,-31,-0.3,7,-8,9.5%
Cc1c(OCC(F)(F)F)ccnc1CSc1nc2ccccc2[nH]1,1,-2.3,0.7,-2,2,0.0%
CC1(C(=O)N/N=C/c2ccccc2)CC1(Br)Br (stereo not given),1,-4.8,-0.8,-21,-13,1.4%
O=C(c1ccccc1)c1coc2c1C(=O)c1ccccc1C2=O,10,?,-0.7,27,3,-1.0%
O=C(CC1SC(N2CCOCC2)=NC1=O)Nc1ccc(Cl)cc1 (stereo not given),4,-4.2,-0.2,-38,3,-4.1%
O=C(O)c1sc2cccc(Cl)c2c1Cl,.,1.9,0.4,-2,-1,2.1%
N/C(CSc1ccccn1)=N\OCc1c(Cl)cccc1Cl,0,-5.0,2.0,-5,8,0.8%
CCC(NC(=O)Nc1ncccc1C)(C(F)(F)F)C(F)(F)F,0,0.1,-1.3,24,2,1.3%
N#C/C(=C/c1ccc(N2CCCCCC2)o1)c1cccc(F)c1,-9,2.2,2.3,1,-15,8.9µM*
O=C(c1nnsc1S(=O)(=O)c1ccc(Cl)cc1)N1CCOCC1,16,-5.4,5.1,-11,2,-2.2%
CC1(C)CC(=O)C2=C(C1)NC(SCC(N)=O)=C(C#N)C21CCCCC1,0,1.9,1.6,-9,6,1.7%
O=C(Nc1ccccc1N1CCOCC1)c1ccc(N2CCOCC2)c([N+](=O)[O-])c1,-4,-0.1,-0.8,2,-19,2.2%
COCCNC(=S)N/N=C/c1ccc(N2CCOCC2)cc1,3,0.4,-0.4,-2,-1,-2.6%
COc1ccc(NC(=O)C2CCCN(S(=O)(=O)c3c(C)n[nH]c3C)C2)cc1 (stereo not given),-1,-0.9,0.4,-19,-3,-1.5%
